# Screening data (PubChem)
# MT1-MMP act inh = blockers of MT1-MMP proenzyme processing, primary screen, HT1080 RFP-PRO-GFP cells, GFP/RFP fluorescence; Matrix metalloproteinase-14 (Homo sapiens), P50281; GFP/RFP ratio fluorescence, overnight; percent of plate control window, DMSO zero; GFP/RFP ratio change, % at 20 µM; actives 0.061% (n = 360,000);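 active means GFP/RFP ratio change of at least 30% with cell ATP level not reduced by more than half and red fluorescence within 50% of control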; further: strong numbers were not always called active
#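 Test system: HT1080 cells expressing an RFP-PRO-GFP fluorescent reporter construct / Compound dosing: single-point 20 µM compound, 1% DMSO / Schedule: cells overnight before dosing, compound overnight, 37 °C, 5% CO2 / Evaluation: GFP/RFP fluorescence ratio / Control set: DMSO and RFP-L50D-GFP cell wells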
# Yeast UUG start = modulators of yeast start codon fidelity, primary screen, whole organism, S. cerevisiae, single point, plate reader; S. cerevisiae UUG-firefly luciferase reporter, luminescence/redox ratio; activity score, % at 18.7 µM; actives 0.13% (n = 350,000); AID 602363, 2012;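 active means replicate mean at a twofold rise or more, about +100% in these data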;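 further: firefly luciferase made from a UUG start codon reports start codon fidelity; reporter light over untreated wells divided by growth signal over untreated wells; some hits fall short of that in this replicate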
# Rce1 inhib = yeast Rce1p protease inhibitors, primary screen, biochemical, fluorescence, cell-free homogeneous; actives 0.27% (n = 290,000); AID 2563, 2010; calls only; CAAX prenyl protease 2 (Saccharomyces cerevisiae (strain ATCC 204508 / S288c)), Q03530; yeast membranes, quenched prenylated peptide cleavage fluorescence;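 active means fall in fluorescence gain of 50% or more versus controls, with final raw signal at or below 3038400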;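 further: plate controls were neutral control wells for no effect and wells lacking membranes for full effect; tested at 10 µM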
# Target sequence (Q03530 whole entry, looked up): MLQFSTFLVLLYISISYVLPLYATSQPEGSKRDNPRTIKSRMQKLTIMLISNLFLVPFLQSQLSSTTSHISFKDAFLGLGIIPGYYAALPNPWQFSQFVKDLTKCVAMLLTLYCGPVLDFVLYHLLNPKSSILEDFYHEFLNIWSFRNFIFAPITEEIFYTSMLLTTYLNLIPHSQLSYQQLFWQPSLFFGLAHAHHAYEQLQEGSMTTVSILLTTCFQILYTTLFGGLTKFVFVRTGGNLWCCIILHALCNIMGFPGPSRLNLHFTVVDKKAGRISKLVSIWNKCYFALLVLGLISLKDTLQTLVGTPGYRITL
# eIF4H FP inh = human eIF4H binding inhibitors, primary screen, translation initiation inhibitor project, biochemical, uHTS, fluorescence polarization; eIF4H fluorescence polarization binding assay; actives 0.94% (n = 290,000); inhibition, % at 35 µM;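 active means 50% or more with normal probe brightness, or confirmed in later tests; about a fifth of its hits are not listed in these tables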;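 further: calls also rest on retests at 20 µM and on dose response follow-up; 0% = protein and probe with vehicle and 100% = probe without protein; strong numbers were not always called active; many hits fall short of the cut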
# CSC inhib = cancer stem cell viability inhibitors, primary screen, luminescence. cancer stem cell-like cells viability. inhibition, % at 7.5 µM. actives 1.1% (n = 300,000). AID 2717, 2010;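 active means mean at 75% or more and at least half the replicates too; tested in HMLE shEcad cells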;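 further: 0% = median of negative and 100% = median of positive control wells; the first replicate is given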
# PABP polyA inh = PABP poly(A) RNA binding inhibitors, primary screen, biochemical, fluorescence polarization, uHTS | Polyadenylate-binding protein 1 (Homo sapiens), P11940 | actives 1% (n = 290,000) | inhibition, % at 35 µM;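 active means 50% or more with normal probe brightness, or confirmed in later tests; about a fifth of its hits are not listed in these tables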;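 further: calls also rest on retests at 20 µM and on dose response follow-up; controls were probe without protein and protein plus probe with vehicle; some compounds called inactive have numbers as strong as hits; many hits fall short of the cut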
# Env fusion inh = inhibitors of HIV-1 Env-driven cell-cell fusion, primary screen, HeLa-JRFL effector, CEM21 target cells, luciferase; actives 1.1% (n = 360,000); AID 651610, 2012; inhibition, % at 12.3 µM;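 active means mean replicate inhibition score of at least 50 and every replicate individually at or above 50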;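 further: 0% = plate neutral controls and 100% = maraviroc near 300 nM; one replicate is shown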
# MT1-MMP act inh RFP = also measured in MT1-MMP act inh; calls as there; RFP signal change, %; measured here: RFP expression control read;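 0 = vehicle wells; hits needed this value within 50% of zero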
# Active calls of the source: *; i = inactive; . = no result given.
SMILES,MT1-MMP act inh,MT1-MMP act inh RFP,Yeast UUG start,Rce1 inhib,eIF4H FP inh,CSC inhib,PABP polyA inh,Env fusion inh
CC(C)(C)NC(=O)C1CCC(C)(C(=O)O)C1(C)C (stereo unspecified),4.4,0.9,-2.5,i,-1.9,-8.7,8.2,10.9
COc1cccc(C(=O)NC(=S)Nc2ccccc2N2CCCCC2)c1,-1.9,0.8,-22.5,i,0.6,40.6,0.2,.
COc1ccc(Cl)cc1NC(=O)CCCn1c(=O)c2cccn2c2cccnc21,-2.0,-2.6,-9.9,.,.,.,.,46.9
COc1ccc2c(c1)Cc1c-2cc(Br)c(N)c1Br,1.3,1.3,-7.0,.,.,.,.,-146.4
CC1=C(C(=O)Nc2ccccc2)C(c2ccco2)C(C#N)=C(SCC(=O)OC(C)C)N1 (stereo unspecified),-3.0,-15.5,3.1,.,5.2,-5.3,3.3,.
O=C(CSc1ccccc1C(=O)O)c1ccc([N+](=O)[O-])cc1,0.2,9.8,.,i,-4.9,-5.6,-1.7,19.2
COc1ccc(CCNC(=S)c2ccccc2)cc1OC,-5.4,-23.1,-16.4,i,7.3,7.9,4.4,23.3
Nc1c(Cl)c(Cl)nc(C(=O)OCC(=O)NC2CCCCC2)c1Cl,-4.6,3.1,-6.7,i,31.4,-7.1,17.1,2.6
CC(O)[C@H]1CNC(=O)C(=O)N1CCc1cccc(F)c1 (stereo partly specified),5.2,2.7,-13.0,i,-7.3,17.4,-6.0,-9.3
Cn1c(Cc2ccccc2)nnc1SCC(=O)Nc1ccc2c(c1)OCO2,1.7,4.5,-20.9,i,8.3,4.6,1.0,-29.5
CN1CCN(C(=O)C2=C[C@@H](C3CCCCC3)C[C@@H](OCc3ccc(CO)cc3)O2)CC1,5.2,-0.6,-4.4,i,0.7,-1.2,-1.3,27.1
CCN1C(=O)c2cccc3c(S(=O)(=O)N4CCCC4C(=O)O)ccc1c23 (stereo unspecified),5.4,9.2,-10.1,i,4.0,-9.0,4.6,14.7
CC1=CC(=O)C(C(C)C)=CC1=NC(=O)c1ccc(C)cc1,-5.2,-0.4,.,i,-3.4,32.1,4.2,-51.6
O=C(CN1C(=O)NC2(CCc3ccccc32)C1=O)c1ccc(Cl)cc1 (stereo unspecified),-1.8,-1.3,.,i,.,-7.2,.,8.9
CS(=O)(=O)Nc1ccccc1-c1cccc2nccn12,0.6,3.4,-12.5,.,.,.,.,-1.5
O=C(Oc1ccc(-c2nccc(-c3ccccn3)n2)cc1)c1cccc(C(F)(F)F)c1,3.4,1.3,-0.1,i,-15.2,-5.5,-1.5,.
CCCCC(CC(O)COCCC)C(=O)NN (stereo unspecified),0.5,5.9,.,i,7.9,25.6,-12.0,12.8
O=C(CNc1ccccc1)N/N=C/c1c[nH]c2ccccc12,-3.0,-3.0,.,i,-4.0,23.6,-3.9,7.3
CCc1cccc(CC)c1NC(=O)Cn1c(-c2ccccc2Cl)nc2ccccc21,3.6,4.3,.,i,1.0,10.5,43.9,0.8
CC1(C)Oc2ccc(C(=O)Nc3ccccc3)cc2N(CC#N)C1=O,4.2,-0.1,-6.9,i,-7.5,-17.0,0.8,2.0

# Some of the entries so far, with each value named:
> CS(=O)(=O)Nc1ccccc1-c1cccc2nccn12
  MT1-MMP act inh: 0.6 | MT1-MMP act inh RFP: 3.4 | Yeast UUG start: -12.5 | Rce1 inhib: . | eIF4H FP inh: . | CSC inhib: . | PABP polyA inh: . | Env fusion inh: -1.5

> O=C(Oc1ccc(-c2nccc(-c3ccccn3)n2)cc1)c1cccc(C(F)(F)F)c1
  MT1-MMP act inh: 3.4 | MT1-MMP act inh RFP: 1.3 | Yeast UUG start: -0.1 | Rce1 inhib: i | eIF4H FP inh: -15.2 | CSC inhib: -5.5 | PABP polyA inh: -1.5 | Env fusion inh: .

> CCCCC(CC(O)COCCC)C(=O)NN (stereo unspecified)
  MT1-MMP act inh: 0.5 | MT1-MMP act inh RFP: 5.9 | Yeast UUG start: . | Rce1 inhib: i | eIF4H FP inh: 7.9 | CSC inhib: 25.6 | PABP polyA inh: -12.0 | Env fusion inh: 12.8

# Other results:
SMILES,MT1-MMP act inh,MT1-MMP act inh RFP,Yeast UUG start,Rce1 inhib,eIF4H FP inh,CSC inhib,PABP polyA inh,Env fusion inh
COc1ccccc1NCC(=O)N/N=C(\C)c1cccs1,2.5,1.3,.,i,-4.3,-4.8,-11.8,3.2
CCCCC#Cc1ccccc1CC(=O)Nc1ccccc1,3.3,-5.2,53.1,i,8.0,-1.0,-1.0,4.6
CC(C)N(C(=NCc1ccccc1)NC(=O)c1ccccc1)C(C)C,7.9,4.6,-22.8,i,.,-5.8,.,-37.9
FC(F)(F)Oc1ccc(NC(=S)Nc2ccccc2N2CCOCC2)cc1,0.9,0.1,-19.2,i,8.2,7.6,5.2,-9.5
CCOc1ccccc1NC(=O)c1cccc2c1C(=O)N(C1CCCCC1)C2,-7.1,-6.0,-14.8,i,.,25.8,.,17.2
O=C(Nc1ccc(Cl)cc1)c1ccc2sc([C@@H]3O[C@H](CO)[C@H](O)[C@H](O)[C@H]3O)nc2c1,6.0,4.0,-11.1,.,.,.,.,0.8
C[C@@]12CCC3[C@@](CCC4[C@@]3(C)CCC[C@@]4(C)C(=O)NCc3ccccc3)(CC1=O)C2 (stereo partly specified),9.0,2.9,-11.8,.,.,-0.6,.,-1.9
Cc1cc(C)c(C)c(S(=O)(=O)N2CCN(CC(=O)Nc3sccc3C#N)CC2)c1C,-5.9,-3.9,-5.6,i,-4.2,19.8,-1.0,.
FC(F)(F)c1nnc2ccc(NCn3nnc4ccccc43)nn12,3.9,1.5,-9.7,.,15.0,0.0,-10.4,.
c1ccc(CSc2ncn[nH]2)nc1,-2.7,-0.1,.,i,-9.0,-19.8,-2.9,0.5
COc1ccc(CN2C(CC(=O)Nc3cccnc3)c3ccc(C(F)(F)F)cc3S2(=O)=O)cc1 (stereo unspecified),3.2,0.6,-9.6,.,.,.,.,-6.8
CC(=O)c1ccc(NC(=O)COC(=O)C2C3CC4OC(=O)C2C4C3)cc1 (stereo unspecified),1.7,0.6,-22.9,i,0.4,20.9,9.0,-6.3
CCN(CC)S(=O)(=O)c1ccc(/C=C/C(=O)OCC(=O)NCc2ccc3c(c2)OCO3)cc1,4.3,3.4,-10.7,i,-8.9,.,-5.0,3.9
Cc1cccc(NC(=O)NNC(=O)COc2ccc([N+](=O)[O-])cc2)c1C,-3.0,-1.1,-4.5,i,-3.3,-4.7,-2.2,-61.9
Cc1ccnc(NC(=O)CCNC(=O)c2ccccc2Cl)c1,-2.5,0.6,-12.7,i,2.8,-17.4,-6.3,1.8
Cc1cc(C)nc(Sc2ccc(/C=C(\C#N)C(N)=O)o2)n1,-3.4,2.5,-3.0,i,5.1,12.4,0.2,.
O=c1sc2ccccc2n1Cc1ccccc1,-0.7,3.3,66.7,i,-10.0,0.4,-1.5,-7.2
COC(=O)c1sccc1NC(=O)Nc1ccc(F)cc1F,3.7,2.8,-8.6,i,4.5,12.7,-0.6,-2.4
c1ccc2c(c1)c1ccccc1n2CN1CCOCC1,-3.2,2.5,.,i,0.6,-6.4,3.5,.
Cn1c(C(=O)NC2CCCCC2)cc2c(=O)n(C)c3ccccc3c21,-0.2,1.6,-10.9,i,-1.0,-27.9,3.9,-3.2
COc1ccc(CNC(=O)CN2C(=O)COc3ccc(S(=O)(=O)NC4CCCC4)cc32)cc1,-9.4,-7.2,-11.6,i,-4.5,-3.7,2.1,5.5
Cn1ncc(Cl)c1C(=O)Nc1ccc(Cl)cn1,-3.0,3.8,-35.7,i,4.1,-2.2,-6.5,-310.2
O=[N+]([O-])c1ccc(-c2csc(NN=C3CCCC3)n2)cc1,0.9,-27.8,-11.1,i,3.4,15.4,15.2,-5.4
O=S(=O)(c1ccc(Cl)s1)N1CCC2(CC1)OCCO2,2.8,2.1,-15.3,i,-18.8,-0.5,-6.2,-36.9
CC(C)(C)[C@H]1C=C(C(=O)NCc2nc3ccccc3[nH]2)O[C@@H](OCc2ccc(CO)cc2)C1,7.2,-0.6,-18.3,i,-5.1,-9.5,-6.2,46.9
Cc1ccc(-n2nc(-c3ccc(OC(F)(F)F)cc3)cc2N)cc1C,0.3,2.6,3.3,i,8.7,41.4,7.1,-66.8
CCOC(=O)c1cc(C)sc1/N=C/C1C(=O)CCCC1=O,10.0,5.0,-12.0,i,17.0,-3.9,3.3,0.7
COCC1CCCCN1C(=O)c1ccc(OC)c(OC2CCN(C(C)C)CC2)c1 (stereo unspecified),-3.3,1.2,-6.9,i,.,-10.0,.,-27.2
Cc1ccc(/C=N/N2CCN(c3ccncc3S(=O)(=O)N3CCCCC3)CC2)cc1,-1.0,-2.4,-24.9,i,-5.2,1.3,-12.6,.
COCCOc1ccc(C(F)(F)F)cc1NC(=O)COC(=O)c1cc[n+]([O-])cc1,3.1,0.7,2.9,i,.,8.5,.,-17.8
CC(=O)c1cccc(NC(=O)CN2C(=O)NC3(CCCCCCC3)C2=O)c1,0.2,3.5,-10.3,i,1.4,-13.1,-6.6,-115.5
Cc1ccc(-c2cc([C@H]3[C@H]4C=CC[C@@H](C)[C@@H]4C(=O)N3Cc3ccccc3)ccc2F)cc1,2.9,-8.1,-12.0,i,-9.4,58.7,-3.8,27.1
COc1ccc(C(C)(O)c2nc(-c3ccc(S(C)(=O)=O)cc3)cs2)cc1 (stereo unspecified),-6.6,-2.1,-42.1,.,.,.,.,-9.9
Cc1nc(SCC(=O)c2cc3ccccc3oc2=O)c(C#N)c(-c2cccs2)c1C(=O)Nc1ccccc1,-4.3,-13.8,.,i,0.6,-4.9,9.9,11.7
COc1ccccc1CNC(=O)c1cccs1,-1.9,0.6,-13.8,i,-6.5,-8.5,-10.8,9.3
CCOC(=O)C(C)CC(C)C(=O)N1CCOCCOCCN(C(=O)C(C)CC(C)C(=O)OCC)CCOCC1 (stereo unspecified),-4.9,-9.0,-20.4,i,11.8,.,-0.3,-28.9
Cc1cccc(NC(=O)CCCN2C(=S)NC(C)(C)CC2C)c1C (stereo unspecified),11.2,3.2,-30.0,i,-0.4,-16.6,36.0,0.9
COc1cccc(OC)c1CNC(=O)C1CCC(=O)N(CC2CCCCC2)C1 (stereo unspecified),4.3,3.5,-12.4,i,-4.5,5.3,0.5,9.1
COc1ccc([N+](=O)[O-])cc1NC(=O)CCC(=O)c1cccs1,-0.7,-1.3,.,i,-0.6,0.8,-6.0,-7.3
NC(=O)CC(NC(=O)Cc1cccc2ccccc12)c1ccc(N2CCC(Br)CC2)c([N+](=O)[O-])c1 (stereo unspecified),2.4,1.7,-9.8,i,-4.5,26.2,-1.5,27.1
O=C(O)CC(C(=O)Nc1cccc(C(F)(F)F)c1)C1CCCO1 (stereo unspecified),-3.7,1.2,-1.8,.,-6.9,-14.4,3.3,31.1
Cc1c(C(=O)N2CCOCC2)sc(NC(=O)CCl)c1C#N,1.5,2.3,-13.8,i,4.2,.,-0.4,4.7
COc1ccc(/C=N/NC(=O)c2cc(-c3cccn3C)n[nH]2)cc1OC,9.4,5.9,.,i,7.0,4.1,8.3,-26.1
CN1CCN(C(=O)c2ccc(Cl)c(S(=O)(=O)N3CCCCC3)c2)CC1,15.1,3.6,0.9,i,-5.0,-14.4,-5.7,11.1
Cc1cn(CC(=O)N[C@H](CO)Cc2c[nH]c3ccccc23)c(=O)[nH]c1=O,0.2,1.6,-10.2,.,.,.,.,-23.2
Cc1ccc(C(=O)N/C(=C\c2ccc(Cl)cc2)C(=O)NCCN2CCOCC2)cc1,1.6,1.1,0.1,i,3.5,.,6.3,-4.1
